# Screening results as filed in PubChem.
# Mtb H37Rv: Mycobacterium tuberculosis H37Rv growth inhibition, cell based, confirmatory dose response (AID 1949) | M. tuberculosis H37Rv growth inhibition | actives 1.6% (n = 100,000) | one-dose inhibition, % at 10 µg/mL; IC50 in µg/mL for titrated hits | most inactive calls were filed without a number and no value below 0 was filed;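 active = confirmed in a dose series; inconclusive = about 50% or more but not retested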;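 note: bacteria grown 7 days with compound before Alamar blue readout; 0% = untreated bacteria and 100% = reference antibiotic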
# The depositor's hits bear a star; i = inactive; ? = inconclusive. An excerpt; rates above refer to the full screens.
structure | Mtb H37Rv
C=CCSc1nc2ccc(I)cc2c(=O)n1CC=C | 3.3%
CCc1c(C)sc(NC(=S)Nc2cccc(S(=O)(=O)N3CCOCC3)c2)c1C(=O)OC | i
CC1CCN(c2ccc([N+](=O)[O-])cc2S(=O)(=O)N2CCN(C)CC2)CC1 | 3.0%
C=CCn1c(SC/C=C/c2ccccc2)nnc1-c1sc(N)nc1C | i
COc1ccc(NC(=O)c2ccc(CSCc3ccccc3)cc2)cc1Cl | i
O=C(CCCN1C(=O)CCC1=O)Nc1cccc(I)c1 | i
COC(=O)Cc1ccc(NC(=O)CSc2ccc(C)cc2)cc1 | ?
Cc1cc(C)c(OCC(=O)O)c(Cl)c1 | i
CCCCC(=O)Nc1ccc2oc(-c3ccc(OC)cc3)nc2c1 | 15.5%
Cc1cc(=O)oc2cc(OC(=O)c3ccccc3)c(Cl)cc12 | i
CCC(C)c1ccccc1NC(=S)NC(=O)c1ccc(OC)c(Cl)c1 (stereo unspecified) | 4.9%
Cc1sc2ncn(CC(=O)Nc3cccc(Cl)c3C)c(=O)c2c1-c1ccccc1 | i
CC(NC(=O)Nc1ccc(Cl)c(Cl)c1)C1CCCO1 (stereo unspecified) | i
CCOc1ccc(C(=O)Nc2ccc(N3CCN(C(=O)c4ccc(C)cc4)CC3)cc2)cc1Cl | i
O=[N+]([O-])/C=C/c1ccc(-c2ccccc2C(F)(F)F)o1 | 4.61µg/mL*
COc1ccc(CCC(=O)NNC(=S)Nc2cccc(C(C)=O)c2)cc1 | i
COC(=O)Cc1cc(=O)n(-c2ccccc2)[nH]1 | 3.7%
CCOc1ccc(C(=O)n2cc(C(=O)OC)c3ccccc32)cc1 | i
C=CCN1C(=O)C(Cc2ccc(OC)cc2)S/C1=N\N=C/c1ccccc1OC (stereo unspecified) | i
CCOC(=O)c1[nH]cnc1C(=O)Nc1cccc(Cl)c1 | 6.2%
Cc1ccc(S(=O)(=O)N(C)c2ccc(C(=O)Nc3cc(C)cc(C)c3)cc2)cc1 | i
Cc1cc(C(=O)NCc2ccco2)cs1 | i
O=C(Nc1ccc(NC(=O)c2cccc(Cl)c2)cc1)c1ccc(F)cc1 | i
O=C(O)COc1ccc(S(=O)(=O)N2CCCCC2)cc1Cl | i
CC(C)(C)OC(=O)NNC(=S)NCc1ccc(Cl)cc1 | i

# An excerpt from above in order of count of non-hydrogen atoms, highest first:
structure | Mtb H37Rv
Cc1ccc(S(=O)(=O)N(C)c2ccc(C(=O)Nc3cc(C)cc(C)c3)cc2)cc1 | i
COc1ccc(NC(=O)c2ccc(CSCc3ccccc3)cc2)cc1Cl | i
CC1CCN(c2ccc([N+](=O)[O-])cc2S(=O)(=O)N2CCN(C)CC2)CC1 | 3.0%
CCCCC(=O)Nc1ccc2oc(-c3ccc(OC)cc3)nc2c1 | 15.5%
CCOC(=O)c1[nH]cnc1C(=O)Nc1cccc(Cl)c1 | 6.2%
CC(NC(=O)Nc1ccc(Cl)c(Cl)c1)C1CCCO1 (stereo unspecified) | i
Cc1cc(C(=O)NCc2ccco2)cs1 | i

# (next part)
structure | Mtb H37Rv
O=[N+]([O-])c1ccc(Oc2ccccc2F)c(Cl)c1 | 0.7%
CC(C)(C)NS(=O)(=O)c1ccc(NC(=O)c2ccc(C(C)(C)C)cc2)cc1 | 16.3%
CN(C)c1nc(NCc2ccccc2)nc(SCc2ccccc2)n1 | i
Cc1ccc(CNS(=O)(=O)c2ccc(C(C)(C)C)cc2)n1C | i
Cc1c(O)ccc2c3c(c(=O)oc12)CCC(C)C3 (stereo unspecified) | 4.3%
Cc1csc(NC(=O)C(C)(C)Oc2ccc(Cl)cc2)n1 | 17.2%
COc1ccc(Br)cc1C(=O)NNC(=O)c1cccnc1 | i
CCOc1ccc(C)cc1S(=O)(=O)n1ccnc1 | i
COc1cccc2cc(C(=O)NCCc3ccccc3)c(=O)oc12 | i
COc1cccc(Nc2ccc(-n3ccnc3)nn2)c1 | 3.9%
O=C(CCN1C(=O)c2ccccc2C1=O)NC(=S)Nc1ccccc1C(F)(F)F | 2.6%
O=C(CSc1nc2ccccc2c(=O)n1-c1ccccc1)NCC1CCCO1 (stereo unspecified) | i
O=S(=O)(NCc1ccco1)c1cccc2cccnc12 | i
CCOc1ccccc1N(CC(=O)Nc1cccc(SC)c1)S(=O)(=O)c1ccccc1 | 3.0%
CCOC(=O)c1sc(NC(=S)NC(=O)c2cccc(OC)c2)nc1C | i
CC(=O)Nc1ccc(NC(=O)C2CCN(S(=O)(=O)c3ccc(Br)cc3)CC2)cc1 | i
CS(=O)(=O)N1CCN(C(=O)c2sc3ccccc3c2Cl)CC1 | 4.2%
O=C(Oc1ccccc1[N+](=O)[O-])c1ccccc1I | i
Cc1cc(C)n(CC(=O)Nc2nc3c(s2)CCCC3)n1 | i
O=C(O)c1cc(NC(=O)c2ccccc2Cl)cc(NC(=O)c2ccccc2Cl)c1 | i
CC1CCN(CCOc2cccc(Br)c2)CC1 | i
CCCOc1ccc(N/C=C/C(=O)c2ccc(Br)cc2)cc1 | i
Cc1ccc(Cn2c(Sc3ncccn3)nc3c2c(=O)[nH]c(=O)n3C)cc1 | i
Ic1ccc(-c2noc(-c3ccco3)n2)cc1 | i
Cc1ccc(NC(=S)NC(=O)CC(C)(C)C)c(Br)c1 | i
N#Cc1ccccc1NC(=O)c1cccs1 | i
Cc1ccccc1OCC(=O)N=Nc1c(O)n(C)c2c(C)cccc12 | i
CCOC(=O)NC(=O)CSC1=C(C#N)C(c2cccs2)C(C(=O)OCC)=C(C)N1 (stereo unspecified) | i
COc1ccc(S(=O)(=O)N2CCN(C(=O)CCCc3ccccc3)CC2)cc1OC | 4.1%
Cc1ccc(Cl)c2c1NC(=O)C2(O)CC(=O)c1cccs1 (stereo unspecified) | i
C=CCN1C(=O)C(CC(=O)Nc2ccc(OC)cc2)N(Cc2ccco2)C1=S (stereo unspecified) | i
Cn1c(SCCc2ccccc2)nnc1-c1cccs1 | 7.9%
Cc1ccccc1C(=O)N1CCN(c2ccc(NC(=S)NC(=O)c3cccc(Cl)c3)cc2)CC1 | i
CCOc1ccc(C(=O)Nc2ccc(NC(=O)c3ccccc3)c(C)c2)cc1Br | 0.8%
O=C(CCN1C(=O)c2ccccc2C1=O)Nc1sc2c(c1C(=O)NCC1CCCO1)CCCC2 (stereo unspecified) | i
Oc1cccc2ccc(/C=C/c3cccc(F)c3)nc12 | 0.13µg/mL*
Cc1ccc(C(=O)COc2ccc(NC(=O)c3ccccc3[N+](=O)[O-])cc2)cc1C | i
CCCN(CCC)S(=O)(=O)c1ccc(NC(=O)CCc2ccccc2)cc1 | i
CSc1oc(-c2cccs2)nc1S(=O)(=O)c1ccccc1 | 1.9%
Cc1ccccc1Cn1ccc(NC(=O)c2cc(-c3ccccc3)on2)n1 | i
NS(=O)(=O)c1ccc(CNC(=S)Nc2ccccc2C(F)(F)F)cc1 | i
COc1ccc(OC)c(NS(=O)(=O)N(C)C)c1 | i
COc1ccc(N2CCN(c3nc(=S)n(-c4ccccc4)c(C)c3C(C)=O)CC2)cc1 | i
Cc1ccc(S(=O)(=O)N(CC(=O)Nc2ccccc2C(=O)NCC(C)C)c2ccccc2F)cc1 | i
COc1ccccc1NC(=S)NC(=O)c1cccc2ccccc12 | i
CCN1C(=O)C(CC(=O)Nc2ccc(F)cc2)N(Cc2ccc(N3CCCC3=O)cc2)C1=S (stereo unspecified) | i
C=CCNC(=O)c1c(-c2ccccc2)noc1C | i
Cc1nnc(Nc2ccc(C(N)=O)cc2)c2ccccc12 | i
COc1ccc(C)cc1NC(=O)c1ccc(N(C)S(C)(=O)=O)cc1 | 4.0%
S=C(c1c[nH]c2ccc(Br)cc12)N1CCOCC1 | i

# (cont.)
structure | Mtb H37Rv
O=S(=O)(NC(=S)NC1CCCCC1)c1ccc(Cl)s1 | i
Cc1ccc(N(C)C(=O)Oc2ccc(C(=O)c3ccc(Cl)cc3)cc2)cc1 | i
Cc1ccc(OCC(=O)Nc2cccc3ccccc23)c(C)c1 | i
COCCNC(=S)N1CCN(Cc2cccc(F)c2)CC1 | i
O=C(Nc1ccc(N2CCOCC2)cc1)c1ccc(-c2cccc(Cl)c2)o1 | i
COc1ccccc1CSc1nc2ccccc2[nH]1 | i
CCOC(=O)N1CCN(S(=O)(=O)c2ccc(OC)c(Br)c2)CC1 | i
COC(=O)c1c(-c2ccc(C)c(C)c2)csc1NC(=O)CCCC(=O)O | i
Cc1ccccc1N(CC(=O)Nc1cccc(C)c1C)S(C)(=O)=O | i
Cc1ccc(NS(=O)(=O)c2ccc(NC(=O)COc3ccc(C(C)C)cc3)cc2)c(C)c1 | i
Cn1c(SCC(=O)Nc2ccc(Cl)cc2Cl)nnc1-c1ccc(Br)cc1 | i
O=C(COc1ccccc1Cl)NCCC1=CCCCC1 | 17.2%
CC1CCc2c(sc3ncn(CC(=O)N4CCCCC4)c(=O)c23)C1 (stereo unspecified) | 0.4%
O=C(Nc1cccc2c1CCCC2)c1ccc(Cl)cc1Cl | 41.1%
O=c1[nH]nc(/C=C/c2ccc(F)cc2)o1 | i
O=S(=O)(c1ccccc1)c1cccs1 | i
Cc1ccc(S(=O)(=O)N(CC(=O)N2CCCCC2)Cc2cccc(C)c2)cc1 | 7.8%
COC(=O)C1=C(C)Nc2[nH]c(=S)[nH]c(=O)c2C1c1ccc([N+](=O)[O-])cc1 (stereo unspecified) | 0.5%
CC(C)(C)NC(=O)C12CCC(C)(c3nc4ccccc4nc31)C2(C)C (stereo unspecified) | 0.6%
Cc1ccccc1CNCCNCCO | i
CCc1noc(C)c1C(=O)N1CCOCC1 | i
c1coc(CNc2nc(-c3ccncc3)cs2)c1 | i
NC(=NCc1cccnc1)NC(=O)c1ccccc1 | i
CC(C)(C)c1ccc(C(=O)Nc2cccc3c(=O)[nH][nH]c(=O)c23)cc1 | i
COc1ccc(NC(=O)c2nsc(Cl)c2Cl)cc1OC | 4.0%
COC(=O)c1ccc(C(=O)OC)c(NC(=O)CN(c2cc(C(F)(F)F)ccc2Cl)S(C)(=O)=O)c1 | i
CC(Oc1ccc(Br)cc1)C(=O)Nc1ncn[nH]1 (stereo unspecified) | i
COc1cccc(N2CCN(C(=O)Nc3ccc(Cl)c(Cl)c3)CC2)c1 | 9.41µg/mL*
CCN(CC)C(=O)CSc1nnc(-c2ccco2)n1-c1ccccc1 | i
O=C(CSc1ncccn1)Nc1sc2c(c1C(=O)NCc1ccccc1)CCCC2 | i
CC1=C(C(=O)N2CCCCC2)C(c2ccc([N+](=O)[O-])cc2)C2=C(CC(C)(C)CC2=O)N1 (stereo unspecified) | i
CC(=O)Nc1nonc1-c1nc2ccccc2n1Cc1ccc(Cl)cc1Cl | i
COc1ccc(CCNC(=S)Nc2ccc(S(=O)(=O)Nc3ncccn3)cc2)cc1OC | i
CCOc1cc(C(=O)NCCCn2ccnc2)cc(OCC)c1OCC | i
CC(=O)c1cccc(NC(=O)c2cc(C(=O)Nc3cccc(C(C)=O)c3)cc(N3C(=O)c4ccccc4C3=O)c2)c1 | i
CCN(c1ccccc1)S(=O)(=O)c1ccc(NC(=O)c2cc(OC)c(OC)c(OC)c2)cc1 | 1.2%
CCn1c(SCc2nc3ccccc3c(=O)[nH]2)nnc1-c1ccccc1Br | 1.1%
CCOC(=O)CCc1c(C)c2ccc(OC/C=C/c3ccccc3)cc2oc1=O | 1.4%
C=CCNS(=O)(=O)c1cccc2nonc12 | i
CCOC(=O)N1CCN(CC(O)COc2ccc(C)c(C)c2)CC1 (stereo unspecified) | 4.7%
O=C(Nc1nnc(C2CCCCC2)s1)c1cc(-c2ccccc2)nc2ccccc12 | i
O=C(NCCc1ccccc1)c1nn2cccnc2c1Cl | i
C=C(C)COc1ccc2c3c(c(=O)oc2c1)CCC3 | i
COc1cc(/C=C2\C(=O)N(c3ccc(S(N)(=O)=O)cc3)N=C2C)ccc1O | i
O=C(Nc1ccc(F)cc1F)C1c2ccccc2Oc2ccccc21 | i
CC(C)CNC(=O)CSCc1ccccc1 | i
Cc1ccc(CN2CCN(Cc3cccc(F)c3)CC2)cc1 | 2.5%
COc1ccc(Oc2coc3cc(OC(=O)C4CCCCC4)ccc3c2=O)cc1 | i
COc1ccc(Br)cc1C1NC(=S)NC(c2ccccc2)=C1C(C)=O (stereo unspecified) | i
Cc1cc(OCCN2CCCC2)cc(C(C)C)c1 | i

# New compounds follow.
structure | Mtb H37Rv
CCc1ccc(-c2c(C)sc(NC(C)=O)c2C(N)=O)cc1 | 4.5%
CC(Oc1ccc(Br)cc1)C(=O)O/N=C(\N)c1ccc([N+](=O)[O-])cc1 (stereo unspecified) | 4.8%
CC1(C)CC(NC(=O)c2ccccc2I)CC(C)(C)N1 | i
O=C1CC(N2CCc3ccccc32)C(=O)N1c1ccc(F)cc1 (stereo unspecified) | i
Nc1nnc(C23CC4CCC(CC(C4)C2)C3)s1 | i
Cc1ccc2oc(-c3cc(NC(=O)Cc4ccccc4)ccc3Cl)nc2c1 | <0.1µg/mL*
COc1ccc(S(=O)(=O)N(CC(=O)N2CCN(c3ccccc3)CC2)c2ccccc2)cc1 | 0.6%
O=C(O)c1cccc(NC(=S)NC(=O)c2cccnc2)c1 | i
COC(=O)c1cc(NS(=O)(=O)Cc2ccc(Cl)cc2)cc(C(=O)OC)c1 | 1.3%
Fc1ccc(NC(=S)NNC(=S)NCC2CCCO2)c(F)c1 (stereo unspecified) | 4.3%
Cn1cnc2c1c(=O)n(Cc1c(Cl)cccc1Cl)c(=O)n2C | i
CCCCOc1cccc(C(=O)NNC(=O)Nc2ccc(OC)c(OC)c2)c1 | i
C#CCSc1nnc(-c2sc3ccccc3c2Cl)o1 | i
O=C1/C(=C\c2ccc(-c3ccccc3Cl)o2)SC(=S)N1C1CCCCC1 | i
O=C(CSc1ccccc1)Nc1ccccc1C(=O)O | 5.6%
